# NOMO-1 viab: STK33 inhibitor candidate reducing NOMO-1 cell viability; NOMO-1 AML viability, CellTiter-Glo luminescence, 72 h; AID 2330; inhibition, % (concentration not given with the values); 37,000 tested, 7.5% active;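 active = most replicates above 80%; inconclusive = exactly half above 80%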;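 also: wells of about 30 µL received 25 nL stock; 0% = median of vehicle wells and 100% = reference inhibitor level; the first replicate is given; inactives centre near 10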
# The depositor's hits bear a star; u = inconclusive.
SMILES,NOMO-1 viab
C[C@@H]1CN([C@H](C)CO)C(=O)c2cc(NC(=O)NC3CCCCC3)ccc2O[C@@H]1CN(C)S(=O)(=O)c1cn(C)cn1,27
C[C@H](CO)N1C[C@H](C)[C@H](CN(C)C(=O)Nc2cccc3ccccc23)Oc2ccc(NC(=O)Cc3ccccc3)cc2C1=O,13
COc1ccc(NC(=O)Nc2cccc3c2O[C@@H](CN(C)Cc2ccc(C(=O)O)cc2)[C@@H](C)CN([C@@H](C)CO)C3=O)cc1,39
C[C@@H]1CN([C@H](C)CO)C(=O)c2cc(NS(=O)(=O)c3ccccc3)ccc2O[C@@H]1CN(C)C(=O)NC1CCCCC1,-6
C[C@@H]1CN([C@H](C)CO)C(=O)Cc2cc(NC(=O)Nc3ccc(F)cc3)ccc2O[C@@H]1CN(C)C(=O)Nc1ccc(F)cc1,11
Cc1noc(C)c1NC(=O)N(C)C[C@@H]1Oc2ccc(NS(=O)(=O)c3ccccc3)cc2CC(=O)N([C@H](C)CO)C[C@@H]1C,-19
CCc1cc(-c2[nH]ncc2-c2nc(C)cs2)c(O)cc1OC(C)C(=O)NN (stereo unspecified),21
COc1ccc(CN(C)C[C@@H]2Oc3ccc(NS(=O)(=O)c4ccc(F)cc4)cc3CC(=O)N([C@H](C)CO)C[C@H]2C)cc1,17
CS(=NC(=O)Nc1ccc(Cl)cc1)c1sc(Cl)c2c1C(=O)CCC2 (stereo unspecified),116*
Cc1c(Cl)cccc1NC(=O)CSc1nnc(-c2ccc(NC(=O)c3ccccc3Br)cc2)n1C,27
C[C@H](CO)N1C[C@H](C)[C@@H](CN(C)Cc2ccncc2)Oc2c(NC(=O)Nc3ccc(C(F)(F)F)cc3)cccc2C1=O,36
COc1ccc(CN(C)C[C@H]2Oc3c(NC(=O)Nc4cccc5ccccc45)cccc3C(=O)N([C@H](C)CO)C[C@H]2C)cc1,46
CCCn1c(SCc2nc(-c3cccs3)no2)nnc1-c1ccncc1,29
C[C@H]1CN([C@@H](C)CO)C(=O)Cc2cc(NC(=O)Nc3ccc(F)cc3)ccc2O[C@H]1CN(C)Cc1ccc(-c2ccccc2)cc1,110*
Cc1ccc(S(=O)(=O)Nc2ccc3c(c2)CC(=O)N([C@@H](C)CO)C[C@H](C)[C@H](CN(C)S(C)(=O)=O)O3)cc1,8
Cc1noc(C)c1NC(=O)N(C)C[C@H]1Oc2ccc(NC(=O)Cc3ccccc3)cc2CC(=O)N([C@@H](C)CO)C[C@@H]1C,-17
CSc1ccccc1NC(=O)CN(c1cc(Cl)ccc1C)S(C)(=O)=O,-2
C[C@H](CO)N1C[C@H](C)[C@H](CN(C)Cc2ccc(Cl)c(Cl)c2)Oc2c(NS(C)(=O)=O)cccc2C1=O,-10
Cc1ccc(S(=O)(=O)N(C)C[C@H]2Oc3ccc(NC(=O)Cc4cn(C)c5ccccc45)cc3C(=O)N([C@H](C)CO)C[C@H]2C)cc1,16
Cc1ccc(-n2c(SCC(N)=O)nnc2-c2cccs2)cc1,-10

# Arranged by count of non-hydrogen atoms (lowest first): part of the list above
SMILES,NOMO-1 viab
CSc1ccccc1NC(=O)CN(c1cc(Cl)ccc1C)S(C)(=O)=O,-2
CCc1cc(-c2[nH]ncc2-c2nc(C)cs2)c(O)cc1OC(C)C(=O)NN (stereo unspecified),21
C[C@H](CO)N1C[C@H](C)[C@H](CN(C)Cc2ccc(Cl)c(Cl)c2)Oc2c(NS(C)(=O)=O)cccc2C1=O,-10
C[C@@H]1CN([C@H](C)CO)C(=O)c2cc(NC(=O)NC3CCCCC3)ccc2O[C@@H]1CN(C)S(=O)(=O)c1cn(C)cn1,27
C[C@@H]1CN([C@H](C)CO)C(=O)Cc2cc(NC(=O)Nc3ccc(F)cc3)ccc2O[C@@H]1CN(C)C(=O)Nc1ccc(F)cc1,11
C[C@H](CO)N1C[C@H](C)[C@H](CN(C)C(=O)Nc2cccc3ccccc23)Oc2ccc(NC(=O)Cc3ccccc3)cc2C1=O,13

# (further entries)
SMILES,NOMO-1 viab
Cc1ccc(S(=O)(=O)Nc2cccc3c2O[C@@H](CN(C)Cc2ccc(C(=O)O)cc2)[C@@H](C)CN([C@H](C)CO)C3=O)cc1,0
C[C@@H]1CN([C@@H](C)CO)C(=O)c2cc(NC(=O)CCCN(C)C)ccc2O[C@H]1CN(C)CC1CCCCC1,8
COc1ccc(NC(=O)Nc2ccc3c(c2)C(=O)N([C@@H](C)CO)C[C@H](C)[C@@H](CN(C)C(=O)Nc2ccccc2)O3)cc1,17
CC(C)NC(=O)N(C)C[C@@H]1Oc2ccc(NC(=O)Nc3ccc(C(F)(F)F)cc3)cc2C(=O)N([C@H](C)CO)C[C@H]1C,5
C[C@H]1CN([C@@H](C)CO)C(=O)c2cc(NS(=O)(=O)c3ccc(Cl)cc3)ccc2O[C@@H]1CN(C)Cc1ccc(-c2ccccc2)cc1,38
C[C@@H]1CCCCO[C@H](CN(C)C(=O)c2ccccc2)[C@@H](C)CN([C@H](C)CO)C(=O)c2cc(NS(=O)(=O)c3ccccc3)ccc2O1,-19
C[C@@H]1CN([C@@H](C)CO)C(=O)c2cc(NC(=O)Nc3ccc(F)cc3)ccc2O[C@H]1CN(C)S(=O)(=O)c1cn(C)cn1,19
O=C(CSc1ccccc1)Nc1cccc(Oc2ccc3c(c2)C(=O)NC3=O)c1,-8
Cc1noc(C)c1S(=O)(=O)Nc1ccc2c(c1)C(=O)N([C@H](C)CO)C[C@H](C)[C@@H](CN(C)Cc1ccc(C(F)(F)F)cc1)O2,17
CNC(=O)CN(c1cc([N+](=O)[O-])ccc1OC)S(C)(=O)=O,1
COc1ccc(S(=O)(=O)N(C)C[C@H]2OCCCC[C@@H](C)Oc3ccc(NS(=O)(=O)c4ccc(Cl)cc4)cc3C(=O)N([C@H](C)CO)C[C@@H]2C)cc1,65
C[C@@H]1CN([C@H](C)CO)C(=O)Cc2cc(NC(=O)NC3CCCCC3)ccc2O[C@H]1CN(C)S(=O)(=O)c1cn(C)cn1,8
C[C@@H]1CCCCO[C@H](CN(C)Cc2ccncc2)[C@@H](C)CN([C@H](C)CO)C(=O)c2cc(NS(=O)(=O)c3cn(C)cn3)ccc2O1,-1
CC(C)(C)SC(=O)c1cccnc1SCCS(=O)(=O)c1cccc(C(F)(F)F)c1,32
Cc1cc(C(=O)Nc2cccc3c2O[C@@H](CN(C)C(=O)NC(C)C)[C@@H](C)CN([C@@H](C)CO)C3=O)n(C)n1,15
COc1ccc(S(=O)(=O)N(C)C[C@H]2Oc3ccc(NS(=O)(=O)c4c(C)noc4C)cc3CC(=O)N([C@@H](C)CO)C[C@@H]2C)cc1,5
Cc1noc(C)c1NC(=O)Nc1cccc2c1O[C@H](CN(C)Cc1ccccc1)[C@@H](C)CN([C@@H](C)CO)C2=O,7
C[C@@H]1CN([C@@H](C)CO)C(=O)c2cc(NC(=O)Nc3ccc4c(c3)OCO4)ccc2O[C@H]1CN(C)C(=O)Nc1ccccc1,3
CCOC(=O)c1ccc(NC(=O)c2ccco2)cc1,8
C[C@@H]1CN([C@@H](C)CO)C(=O)c2cccc(NS(=O)(=O)c3ccc(F)cc3)c2O[C@@H]1CN(C)C(=O)Nc1ccccc1,1
CC(C)NC(=O)Nc1cccc2c1O[C@H](CN(C)S(=O)(=O)c1cn(C)cn1)[C@H](C)CN([C@@H](C)CO)C2=O,24
COc1ccc(S(=O)(=O)N(C)C[C@H]2Oc3ccc(NC(=O)Nc4ccccc4)cc3C(=O)N([C@@H](C)CO)C[C@@H]2C)cc1,13
C[C@@H]1CCCCO[C@@H](CN(C)Cc2ccc(C(=O)Nc3ccccc3N)cc2)[C@@H](C)CN([C@H](C)CO)C(=O)c2cc(NS(C)(=O)=O)ccc2O1,u
COc1ccc(S(=O)(=O)Nc2cccc3c2O[C@@H](CN(C)C(=O)NC(C)C)[C@@H](C)CN([C@H](C)CO)C3=O)cc1,15
C[C@@H]1CN([C@H](C)CO)C(=O)c2cc(NC(=O)Nc3cccc4ccccc34)ccc2O[C@@H]1CN(C)C(=O)Nc1ccc(C(F)(F)F)cc1,22
COc1ccc(C(=O)Nc2ccc(C)c(C)c2)cc1,23
Cc1noc(C)c1S(=O)(=O)N(C)C[C@@H]1Oc2ccc(NS(=O)(=O)c3cn(C)cn3)cc2CC(=O)N([C@@H](C)CO)C[C@@H]1C,18
O=C(COc1cccc([N+](=O)[O-])c1)Nc1cccc(I)c1,32
C[C@H]1CN([C@@H](C)CO)C(=O)c2cc(NC(=O)CCN3CCOCC3)ccc2O[C@@H]1CN(C)C(=O)Nc1ccc(C(F)(F)F)cc1,23
CNC[C@H]1Oc2ccc(NC(=O)Nc3c(C)noc3C)cc2CC(=O)N([C@H](C)CO)C[C@H]1C,28
C[C@H](CO)N1C[C@H](C)[C@H](CN(C)Cc2ccc(Cl)c(Cl)c2)Oc2c(NC(=O)C3CC3)cccc2C1=O,4
Cc1ccc(S(=O)(=O)N(C)C[C@@H]2Oc3ccc(NC(=O)C4CCCCC4)cc3CC(=O)N([C@@H](C)CO)C[C@@H]2C)cc1,17
C[C@H]1CN([C@@H](C)CO)C(=O)c2cc(NC(=O)Cc3cn(C)c4ccccc34)ccc2O[C@H]1CN(C)S(=O)(=O)c1ccc(F)cc1,7
C[C@@H]1CN([C@H](C)CO)C(=O)c2cc(NC(=O)Cc3ccccc3)ccc2O[C@H]1CN(C)Cc1ccc(Oc2ccccc2)cc1,20
O=C(NC(CO)Cc1ccccc1)c1ccccc1 (stereo unspecified),11
COc1cccc(/C=N/n2cnnc2)c1,12
CCCOC(=O)C1=C(C)N(CC)C(=O)NC1c1ccccc1Cl (stereo unspecified),-9
Cc1noc(C)c1NC(=O)Nc1ccc2c(c1)C(=O)N([C@H](C)CO)C[C@H](C)[C@H](CN(C)C(=O)Nc1cccc3ccccc13)O2,25
Cc1noc(C)c1S(=O)(=O)N(C)C[C@H]1Oc2ccc(NC(=O)CCN3CCOCC3)cc2CC(=O)N([C@H](C)CO)C[C@H]1C,19
C[C@H](CO)N1C[C@H](C)[C@@H](CN(C)Cc2ccncc2)Oc2c(NC(=O)Nc3ccc4c(c3)OCO4)cccc2C1=O,-1
Cc1cc(O)cc(=O)o1,-3
C[C@@H]1CCCCO[C@@H](CN(C)CC2CCCCC2)[C@@H](C)CN([C@H](C)CO)C(=O)c2cc(NC(=O)Nc3cccc4ccccc34)ccc2O1,112*
COc1ccc(NC(=O)CN(c2cc(Cl)c(Cl)cc2Cl)S(C)(=O)=O)cc1Cl,38
C[C@H](CO)N1C[C@H](C)[C@@H](CN(C)C(=O)Nc2cccc3ccccc23)Oc2c(NC(=O)Nc3ccc4c(c3)OCO4)cccc2C1=O,37
Cc1csc2sc(-c3ccnc(SCc4ccccc4)n3)c(C)c12,-2
COc1ccc(NC(=O)Nc2ccc3c(c2)C(=O)N([C@H](C)CO)C[C@H](C)[C@H](CN(C)Cc2ccc4c(c2)OCO4)O3)cc1,97*
COc1ccc(S(=O)(=O)N(C)C[C@@H]2Oc3ccc(NS(=O)(=O)c4ccc(F)cc4)cc3C(=O)N([C@@H](C)CO)C[C@@H]2C)cc1,10
C[C@@H]1CCCCO[C@H](CN(C)Cc2ccncc2)[C@@H](C)CN([C@H](C)CO)C(=O)c2cc(NC(=O)CCCN(C)C)ccc2O1,-7
Cc1cc(C)c(OCC(=O)Nc2cccnc2)c(Br)c1,6
C[C@@H]1CN([C@H](C)CO)C(=O)Cc2cc(NC(=O)NC3CCCCC3)ccc2O[C@H]1CN(C)Cc1ccc(C(F)(F)F)cc1,93*
C[C@H]1CN([C@@H](C)CO)C(=O)Cc2cc(NC(=O)Nc3cccc4ccccc34)ccc2O[C@@H]1CN(C)Cc1ccc(C(=O)O)cc1,3
COc1ccc(NC(=O)Nc2ccc3c(c2)CC(=O)N([C@@H](C)CO)C[C@H](C)[C@H](CN(C)Cc2ccc4c(c2)OCO4)O3)cc1,14
C[C@H](CO)N1C[C@H](C)[C@H](CN(C)C(=O)Nc2ccc3c(c2)OCO3)Oc2ccc(NC(=O)C3CC3)cc2CC1=O,22
COc1ccc(N(C(=O)C2CCCCC2)S(=O)(=O)c2cc(OC)ccc2OC)cc1,-17
C[C@@H]1CN([C@@H](C)CO)C(=O)c2cccc(NC(=O)c3ccncc3)c2O[C@H]1CN(C)C(=O)NC1CCCCC1,2
COc1ccc(CN(C)C[C@@H]2Oc3c(NC(=O)Nc4ccccc4)cccc3C(=O)N([C@H](C)CO)C[C@@H]2C)cc1,38
CC(C)NC(=O)Nc1ccc2c(c1)C(=O)N([C@H](C)CO)C[C@H](C)[C@H](CN(C)C)OCCCC[C@@H](C)O2,-2
C[C@H](CO)N1C[C@H](C)[C@@H](CN(C)Cc2ccccc2)Oc2c(NC(=O)c3ccc(-c4nccs4)cc3)cccc2C1=O,97*
C=CCc1c(C)nc(OCC(=O)OCC)c(C#N)c1C,12
CCOc1ccc2c(c1)SC(CC(=O)Nc1ccccc1[N+](=O)[O-])C(=O)N2 (stereo unspecified),1
COc1ccc(NC(=O)Nc2ccc3c(c2)CC(=O)N([C@H](C)CO)C[C@@H](C)[C@@H](CN(C)S(=O)(=O)c2cccs2)O3)cc1,0

# Four entries from above, with each value named:
C[C@@H]1CN([C@H](C)CO)C(=O)Cc2cc(NC(=O)NC3CCCCC3)ccc2O[C@H]1CN(C)Cc1ccc(C(F)(F)F)cc1
  NOMO-1 viab: 93*

COc1ccc(NC(=O)Nc2ccc3c(c2)C(=O)N([C@H](C)CO)C[C@H](C)[C@H](CN(C)Cc2ccc4c(c2)OCO4)O3)cc1
  NOMO-1 viab: 97*

Cc1csc2sc(-c3ccnc(SCc4ccccc4)n3)c(C)c12
  NOMO-1 viab: -2

C=CCc1c(C)nc(OCC(=O)OCC)c(C#N)c1C
  NOMO-1 viab: 12

# Not all compounds are listed; the hit share may differ from the screen's.
